Screens from PubChem BioAssay.
Rce1 inh – yeast Ras-converting enzyme inhibition; Q03530; yeast membranes, quenched prenylated peptide cleavage fluorescence; calls only; 290,000 tested, 0.27% active; AID 2563;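 active means fall in fluorescence gain of 50% or more versus controls, with final raw signal at or below 3038400; inconclusive means same 50% fall but final raw signal above 3038400; inactive means fall in fluorescence gain under 50%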;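 further: plate controls were neutral control wells for no effect and wells lacking membranes for full effect; tested at 10 µM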
Target sequence (Q03530 whole entry, looked up): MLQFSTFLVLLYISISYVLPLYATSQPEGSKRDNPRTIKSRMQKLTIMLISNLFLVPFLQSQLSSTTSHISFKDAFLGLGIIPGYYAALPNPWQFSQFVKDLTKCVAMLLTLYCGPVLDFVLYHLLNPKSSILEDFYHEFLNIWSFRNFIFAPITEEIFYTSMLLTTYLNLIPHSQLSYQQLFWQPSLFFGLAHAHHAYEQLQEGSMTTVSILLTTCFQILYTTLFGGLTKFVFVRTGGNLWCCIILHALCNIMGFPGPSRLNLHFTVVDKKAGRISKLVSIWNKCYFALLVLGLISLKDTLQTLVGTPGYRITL
PABP polyA inh – PABP-poly(A) binding inhibition. P11940. PABP-poly(A) RNA binding, fluorescence polarization. inhibition, % at 35 µM. 290,000 tested, 1% active. AID 2014;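 active means 50% or more with normal probe brightness, or confirmed in later tests; inconclusive means above 50% with abnormal brightness, or retests that disagree; inactive means below 50% or failed in later tests; about a fifth of its hits are not listed in these tables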;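 further: calls also rest on retests at 20 µM and on dose response follow-up; controls were probe without protein and protein plus probe with vehicle; some compounds called inactive have numbers as strong as hits; many hits fall short of the cut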
Target sequence (P11940 whole entry, looked up): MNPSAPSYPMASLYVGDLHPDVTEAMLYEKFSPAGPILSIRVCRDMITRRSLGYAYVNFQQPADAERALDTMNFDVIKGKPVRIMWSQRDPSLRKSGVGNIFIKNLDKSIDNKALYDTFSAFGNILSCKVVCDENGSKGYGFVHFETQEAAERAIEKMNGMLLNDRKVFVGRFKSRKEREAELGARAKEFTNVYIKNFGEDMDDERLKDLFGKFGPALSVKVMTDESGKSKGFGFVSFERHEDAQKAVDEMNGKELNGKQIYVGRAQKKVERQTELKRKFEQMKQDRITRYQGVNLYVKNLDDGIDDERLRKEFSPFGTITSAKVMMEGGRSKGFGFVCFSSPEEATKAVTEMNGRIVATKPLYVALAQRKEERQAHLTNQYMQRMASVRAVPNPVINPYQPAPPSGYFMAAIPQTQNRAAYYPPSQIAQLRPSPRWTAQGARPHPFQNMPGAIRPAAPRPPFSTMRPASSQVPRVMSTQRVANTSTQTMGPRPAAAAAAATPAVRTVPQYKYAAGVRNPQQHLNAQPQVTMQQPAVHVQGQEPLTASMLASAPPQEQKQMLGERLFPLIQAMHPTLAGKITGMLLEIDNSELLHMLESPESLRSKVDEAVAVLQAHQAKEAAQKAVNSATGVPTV
MT1-MMP act inh – blocks activation of human MT1-MMP; P50281; HT1080 RFP-PRO-GFP cells, GFP/RFP ratio fluorescence, overnight; percent of plate control window, DMSO zero; GFP/RFP ratio change, % at 20 µM; 360,000 tested, 0.061% active;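 active means GFP/RFP ratio change of at least 30% with cell ATP level not reduced by more than half and red fluorescence within 50% of control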; further: strong numbers were not always called active
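system = RFP-PRO-GFP reporter HT1080 cells | dosing = 20 µM single dose, 1% DMSO | timing = overnight cell settling, then overnight compound exposure, 37 °C, 5% CO2 | read-out basis = GFP/RFP fluorescence ratio | controls = DMSO and RFP-L50D-GFP cell wells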
eIF4H FP inh – inhibitors of RNA binding by human eIF4H; inhibition, % at 35 µM; 290,000 tested, 0.94% active; Q15056; eIF4H fluorescence polarization binding assay;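 active means 50% or more with normal probe brightness, or confirmed in later tests; inconclusive means above 50% with abnormal brightness, or retests that disagree; inactive means below 50% or failed in later tests; about a fifth of its hits are not listed in these tables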;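 further: calls also rest on retests at 20 µM and on dose response follow-up; 0% = protein and probe with vehicle and 100% = probe without protein; strong numbers were not always called active; many hits fall short of the cut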
HIV Env fusion – blocks HIV Env-driven cell-cell fusion; inhibition, % at 12.3 µM; HeLa-JRFL Env/CEM21 cell fusion, luciferase; 360,000 tested, 1.1% active;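 active means mean replicate inhibition score of at least 50 and every replicate individually at or above 50; inconclusive means only one of the two criteria met; inactive means mean below 50 and not all replicates reaching 50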;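 further: 0% = plate neutral controls and 100% = maraviroc near 300 nM; one replicate is shown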
Yeast UUG start – alters start codon recognition fidelity in yeast | S. cerevisiae UUG-firefly luciferase reporter, luminescence/redox ratio | activity score, % at 18.7 µM | 350,000 tested, 0.13% active;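 active means replicate mean at a twofold rise or more, about +100% in these data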;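 further: firefly luciferase made from a UUG start codon reports start codon fidelity; reporter light over untreated wells divided by growth signal over untreated wells; some hits fall short of that in this replicate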
CSC inhib – cancer stem cell inhibition. 300,000 tested, 1.1% active. inhibition, % at 7.5 µM. cancer stem cell-like cells viability, luminescence;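 active means mean at 75% or more and at least half the replicates too; inconclusive means mean and replicates disagree; tested in HMLE shEcad cells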;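 further: 0% = median of negative and 100% = median of positive control wells; the first replicate is given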
MT1-MMP act inh RFP – recorded beside MT1-MMP act inh, whose call it bears; RFP signal change, %; measured here: RFP expression control read;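 0 = vehicle wells; hits needed this value within 50% of zero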
The depositor's hits bear a star; i = inactive; ? = inconclusive; · = not tested or not shown; & = joins results of further samples. An excerpt (hit frequency here may not be typical).

SMILES	Rce1 inh	PABP polyA inh	MT1-MMP act inh	MT1-MMP act inh RFP	eIF4H FP inh	HIV Env fusion	Yeast UUG start	CSC inhib
O=S(=O)(/N=C/c1c(O)ccc2ccccc12)c1cccs1	i	12	·	·	-3	6	·	-7
Cc1ccc2c(c1)N(CC(=O)N1CCCCC1C)C(=O)CO2 (stereo unspecified)	i	-8	3	4	12	10	-3	·
O=C1CCC(=O)N1c1ccc(NCCc2cccc(F)c2)c([N+](=O)[O-])c1	i	7	5	-1	-4	-7	-11	1
CC(C)C(=O)N1CCC(n2nccc2NC(=O)CCc2ccccc2)CC1	i	-20	4	1	-16	2	-5	-3
CC1(C)CC(=O)C2=C(C1)N(c1cccc(O)c1)C1=C(C2)C(=O)CC(C)(C)C1	i	?	-4	4	?	·	-11	2
CCOc1c(Br)cc(C(=O)Nc2cccc(S(=O)(=O)N3CCOCC3)c2)cc1OC	·	·	-2	-6	·	34	5	·
Cc1cc(C(=O)NNC(=O)CCC2CCCCC2)c(C)o1	i	-4	-2	3	3	2	·	-9
COc1ccccc1NC(=O)COC(=O)COc1cccc2c1OC(C)(C)C2	i	·	3	5	·	0	·	-1
CCc1sc(C(=O)N2CCc3ccccc32)cc1C	i	9	-2	-1	-1	-178	·	19
COCCN1Cc2cccc(C(=O)Nc3cccc(-c4nc5ccccc5[nH]4)c3)c2C1=O	i	1	10	5	-8	10	3	55
CSCCC(NC(=O)c1ccccc1Cl)C(=O)N1CCN(C(c2ccccc2)c2ccccc2)CC1 (stereo unspecified)	i	0	-16	-13	5	-44	9	20
COC(=O)CSc1ccc(S(=O)(=O)N2CCCCCC2)cc1[N+](=O)[O-]	i	3	1	2	-9	-13	-3	6
Clc1ccccc1CSc1nncn1-c1cccnc1	i	-9	·	·	6	·	·	-6
COc1cccc(OC)c1C(=O)Nc1ccc(S(=O)(=O)Nc2ncccn2)cc1	i	5	-1	-1	5	-12	-14	-11
O=C(COc1ccccc1)Nc1nnc(-c2ccc(Cl)cc2)o1	i	-15	-1	4	0	-17	-11	12
CNc1nc2c(C)cccn2c(=O)c1C=NCc1ccccc1	i	-8	2	3	4	-86	-14	-11
C#CCOCCOCCOCCNc1nc(N2CCN(C(=O)[C@H]([C@@H](C)CC)n3cc([C@@H](N)CO)nn3)CC2)nc(N2CCN(C(=O)[C@H](Cc3ccc(O)cc3)n3cc([C@@H](N)CC(C)C)nn3)CC2)n1	i	31	0	6	31	-17	52	-7
CCOC(=O)N1CCN(C(=O)c2cc(OCC)c(OCC)c(OCC)c2)CC1	i	-11	0	-9	-5	-1	·	9
Cc1nn(-c2ccccc2)c(NC(=O)c2cccs2)c(-c2ccccc2Cl)c1=O	i	3	-6	-1	4	4	-12	1
Cn1cnc2cc(NCc3ccc(Cl)cc3)ccc21	i	-8	8	1	-2	-19	-16	-9
COc1ccc(N2C(=O)C3C4C=CC(C4)C3C2=O)nn1 (stereo unspecified)	i	-5	-1	0	-6	-36	-9	8
CCc1cc2c(=O)c(-c3nc4ccccc4n3C)c(C(C)C)oc2c(CN2CCN(C)CC2)c1O	i	21	3	1	1	57*	-13	-4
CCCc1cc(C(=O)Nc2sc(C(C)=O)c(C)c2C(=O)OCC)no1	i	12	0	1	2	-1	-16	-18
COc1ccc(C(=O)N(C)C2CCN(C)CC2)cc1S(=O)(=O)Nc1cc(Cl)ccc1Cl	i	7	·	·	4	·	·	-1
CCOC(=O)c1c(C)[n+](-c2ccc(C)cc2)c(CC)c2cc(OC)c(OC)cc12	i	-6	0	-12	-2	12	-6	0
Following part
SMILES	Rce1 inh	PABP polyA inh	MT1-MMP act inh	MT1-MMP act inh RFP	eIF4H FP inh	HIV Env fusion	Yeast UUG start	CSC inhib
O=C(c1ccc([N+](=O)[O-])cc1)N1CCOCC1	·	·	2	5	·	3	-5	·
O=C1c2cccc(Cl)c2C(=O)c2c1cccc2N1CCCC1	i	·	46*	12*	·	·	-19	32
CN(C)c1ncnc2sc(-c3ccccc3)cc12	i	-3	-5	-5	-14	18	-17	19
Nc1cc(C(F)(F)F)ccc1N1CCOCC1	i	-8	2	1	-8	-2	·	·
O=C1CCCC(=O)N1c1ccc(N2CCN(c3ccc([N+](=O)[O-])cc3)CC2)c([N+](=O)[O-])c1	i	6	·	·	-5	·	·	4
CC(NC(=O)C(c1ccccc1)c1ccccc1)c1ccccc1 (stereo unspecified)	i	·	-2	-3	·	3	·	-1
CCOc1ccc(OCC)c(NC(=O)Cn2cccc2)c1	i	0	1	1	4	·	·	-7
O=c1ccc2cc(S(=O)(=O)N3CCN(c4cc(Cl)ccc4Cl)CC3)ccc2o1	i	2	-5	-15	-4	-8	-9	-5
Cn1c(-c2ccc(F)cc2)cnc1SCC(=O)N1CCCc2ccccc21	i	2	1	-1	-2	-3	-21	8
Cc1ccc(-n2ncc(-c3n[nH]c(=S)o3)c2N)cc1C	·	·	6	6	·	-16	-21	·
Cc1ccc(C(=O)Nc2ccc(C(F)(F)F)n(C)c2=O)cc1	i	-4	1	6	9	-53	·	-2
CCNc1nc(NCC)nc(N(C)N)n1	i	-6	4	8	5	24	-17	12
COc1ccc(SCCCn2c(=O)c3c(ncn3C)n(C)c2=O)cc1	i	1	2	-3	8	13	7	0
CCC(c1nnc(SCC(=O)Nc2ccc(S(N)(=O)=O)cc2)n1Cc1ccccc1)N(C)C (stereo unspecified)	i	?	0	6	-2	4	-6	-3
S=c1[nH]nc(-c2cc(-c3ccccc3)n[nH]2)n1/N=C/c1ccc(Cl)c(Cl)c1	i	2	6	-4	45	2	·	13
S=C(Nc1cccnc1)Nc1ccccn1	i	-2	-2	0	-2	·	·	-16
Cc1ccccc1-n1nc2c(c1NC(=O)C(C)(C)C)CS(=O)(=O)C2	i	8	-1	5	-8	6	-8	1
Cc1nnc(NC(=O)C(C)Sc2nncn2C)s1 (stereo unspecified)	i	4	-4	7	-4	-384	-1	-3
CCN(CC)CCOC(=O)C1(c2ccccc2)CCOCC1	i	1	-2	-4	-5	·	-11	-19
CCCN(CCO)Cc1cccc(Br)c1	i	0	1	1	-6	-40	-6	-7
Cn1c(SCc2nc(-c3ccc(Cl)cc3)no2)nnc1-c1ccco1	i	8	6	4	-1	19	-9	11
CCOc1ccc(NC(=O)CCn2nc(C)c(S(=O)(=O)N3CCCCC3)c2C)cc1	i	7	-3	-1	-3	3	8	-12
COc1ccc2c(c1)[nH]c1c(=O)n(Cc3ccco3)cnc12	i	-1	7	1	-8	·	-2	-15
Cc1c(C2N3CC4(C)CN2CC(C)(C3)C4=O)c2ccccc2n1C (stereo unspecified)	i	-2	3	1	4	-221	-12	-9
Cc1n[nH]c(C)c1S(=O)(=O)N1CCN(S(=O)(=O)c2cccc(F)c2)CC1	·	·	-1	-3	·	20	-23	·
(continued)
SMILES	Rce1 inh	PABP polyA inh	MT1-MMP act inh	MT1-MMP act inh RFP	eIF4H FP inh	HIV Env fusion	Yeast UUG start	CSC inhib
Cc1c(C(=O)OCC(C)C)[nH]c2c1C(=O)CC(c1ccco1)C2 (stereo unspecified)	i	-16	9	-14	22	-74	-14	·
COc1ccccc1CNC(=O)c1ccccc1SCC(=O)NCc1ccco1	·	·	1	1	·	-23	-26	·
C/C(N)=C(/C#N)C(=O)CSc1nc2ccccc2c(=O)n1Cc1ccc(C)cc1	·	-8	-4	2	1	15	·	-6
CC(C)c1ccc(/C=N/n2nnnc2Nc2ccccc2)cc1	i	-7	2	2	0	·	-9	0
O=C(N1CCC(n2nc(-c3ccccc3)oc2=O)CC1)C1(c2ccccc2)CC1	i	8	-3	-4	-14	·	-10	6
CN(CC(=O)Nc1ccccc1Cl)C(=O)COC(=O)Cc1ccc(F)cc1	i	10	3	3	-8	8	-6	5
Cc1cccc(C)c1OCC(=O)N/N=C/c1ccncc1	i	0	0	0	4	12	·	1
CCC(C)(C)NC(=O)CN(Cc1ccc(OC)cc1)C(=O)CCC(=O)Nc1nccs1	i	12	-2	0	6	-1	0	·
CN(C)N1C(N)=C(C#N)C(c2cccc([N+](=O)[O-])c2)C2=C1CC(C)(C)CC2=O (stereo unspecified)	i	6	-3	-2	6	10	-13	·
Cc1cc2[nH]c(=O)c3ccccc3n2n1	i	-11	1	0	-8	-106	-17	-5
O=C(CSCc1ccc(Cl)cc1)Nc1ccc2c(c1)OCO2	i	6	5	3	10	·	-6	17
Cc1ccc(-c2[nH]ncc2C(=O)c2ccccc2C)c(O)c1	i	4	5	0	-2	5	-24	-7
COc1cc(-c2cc3nc(NCCc4ccc(S(N)(=O)=O)cc4)ccn3n2)cc(OC)c1OC	·	·	13	3	·	-7	-14	·
COc1ccc2oc(C(=O)OCC(=O)NC(C)c3ccccc3)c(C)c2c1 (stereo unspecified)	i	1	-2	-1	-5	-13	-3	-7
Nc1cc(-c2ccc(Br)cc2)nn1S(=O)(=O)c1ccccc1	i	-18	-3	-7	-4	?	-9	-17
CCOC(=O)C(/C=C(\C#N)C(=O)OCC)=C(/N)N1CCN(c2c(C)cccc2C)CC1	i	1	-1	-4	-7	·	·	20
CCOCc1nc(C)c(Cl)c(NS(=O)(=O)c2ccc(N)cc2)n1	i	4	-1	3	-2	·	-7	-18
C=CCn1c(SCC(=O)Nc2c(C)cccc2C)nnc1-c1ccncc1	i	3	-2	-4	1	·	-1	-6
CS(=O)(=O)c1cccc(NC(=O)c2ccc(Cl)c(Cl)c2)c1	i	-8	3	-2	-11	10	·	-16
COc1ccc(CNC(=O)C2CCCN(S(=O)(=O)c3cccc4nsnc34)C2)cc1 (stereo unspecified)	i	2	0	-4	-15	-1	-11	-10
CCCCNC(=O)C1(C)CCCCN1C(=O)c1ccc(C#N)cc1 (stereo unspecified)	·	·	0	2	·	-8	-7	·
Cc1nn(C(=O)c2cc3sccc3[nH]2)c(C)c1C	i	0	-3	-1	-2	·	-6	·
CN(Cc1ccccc1)C(=O)Cn1nnc(-c2ccccc2)c1COc1ccc2ccccc2c1	·	·	-6	-20	·	25	-5	·
CN(C)c1ccc(C(C(=O)NC2CCCC2)N(C(=O)c2ccco2)C2CC2)cc1 (stereo unspecified)	i	6	-5	-2	-7	8	-11	-2
CCn1ncc(CN2CCN(Cc3ccc(OC)c(C)c3C)C(CCO)C2)c1C (stereo unspecified)	i	12	2	3	4	-4	-11	-4

Reprinted from the part before: 2 entries; new compounds follow.
SMILES	Rce1 inh	PABP polyA inh	MT1-MMP act inh	MT1-MMP act inh RFP	eIF4H FP inh	HIV Env fusion	Yeast UUG start	CSC inhib
CN(C)c1ccc(C(C(=O)NC2CCCC2)N(C(=O)c2ccco2)C2CC2)cc1 (stereo unspecified)	i	6	-5	-2	-7	8	-11	-2
CCn1ncc(CN2CCN(Cc3ccc(OC)c(C)c3C)C(CCO)C2)c1C (stereo unspecified)	i	12	2	3	4	-4	-11	-4
O=C(CN1C(=O)C2C3C=CC(C3)C2C1=O)NCCC1=CCCCC1 (stereo unspecified)	i	-3	-4	2	1	·	·	-9
CCOC(=O)C1=C(c2ccccc2)OC(N)=C(C#N)C1c1ccc(Cl)s1 (stereo unspecified)	i	5	-5	-1	0	·	-5	11
COc1ccc(-c2csc(N(CCCN(C)C)C(=O)c3cccs3)n2)cc1	i	2	7	2	-14	-88	-8	-7
CCN1CCN(C(=O)c2ccccc2N(Cc2ccccc2)S(=O)(=O)c2ccc(OC)cc2)CC1	i	-6	-8	-2	1	14	1	-3
CN(CCc1ccccc1)C1CCCN(C(=O)Cn2cccn2)C1 (stereo unspecified)	i	-6	-4	2	-4	-3	-10	-6
C/C(N)=C(/C#N)C(=O)CSc1n[nH]c(-c2ccccc2Br)n1	i	5	2&3	0&-12	8	-19&-93	-11&-9	-9
